HSD17B inhib = inhibitors of human HSD17B10 dehydrogenase | 75,000 tested, 7.6% active | recombinant HSD17B10, NADH fluorescence kinetic; many of its hits are not listed in these tables | Potency, µM (titrated, usually from 57.1 µM), for the others: at the highest dose activity change, negative = inhibition, usual class: inhibitors | Q99714 | AID 893; active = well fitted inhibition curve with a large enough effect; inconclusive = small, poorly fitted or top-dose-only effect; inactive = no such curve, though single readings can be large or run the other way;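 note: the protocol describes HADH2 (HSD17B10) and not the HSD17B4 of the title; nearly all actives have a fitted effect of over 70% in size; most hits overshoot -100% by far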
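Enzyme plus compound, 15 min room temperature; substrate mix added (NAD+ 1 mM, beta-hydroxybutyryl-CoA 90 uM final); plates read kinetically for NADH fluorescence. HADH2 was His-tagged, E. coli-derived, 20 nM.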
The depositor's hits bear a star; ? = inconclusive; & = joins results of further samples; [ ] = dose if it differs, or a comment. % is set by controls: 0 for no effect and ±100 for the full control effect; potency is the fitted concentration of half-maximal effect. An excerpt. The share of hits here may be higher or lower than overall.

SMILES | HSD17B inhib
CNCc1ccc(OCc2ccccc2)c(OC)c1 | 5.2%
CCC(=O)NC1(C(F)(F)F)C(=O)Nc2c1c(=O)n(C)c(=O)n2C (stereo unspecified) | 5.5%
COCCn1cc(C(=O)c2ccccc2OCC(=O)Nc2cc(C)on2)cc(C#N)c1=O | -23.9%
Brc1ccccc1OCCCN1CCOCC1 | 10.4%
CC1=C(C(=O)OC(C)C)C(c2ccc(N(C)C)cc2)C2=C(CC(C)(C)CC2=O)N1 (stereo unspecified) | -3.4%
CC1CCc2sc3ncnc(N4CCOCC4)c3c2C1 (stereo unspecified) | 0.7%
C#CCN(C#N)c1nc(NCC)nc(NC(C)C)n1 | 6.6%
Brc1ccccc1-c1nnc(CSc2nncn2-c2ccccc2)o1 | -11.3%
CC(C)c1nnc(NC(=O)Cn2nc(-c3ccc4c(c3)OCCO4)ccc2=O)s1 | 6.7%
O=C(O)CCN1CCc2ccccc21 | -14.5%
COC(=O)C1=C(C)N(c2cccc3ccccc23)C(=O)C1 | -19.2%
COc1ccc(NC(=O)C(C)NS(=O)(=O)c2ccccc2)cc1Cl (stereo unspecified) | 5.8%
O=S(=O)(Nc1ccc2c(c1)nc1n2CCOC1)c1ccc(Cl)cc1 | 6.0%
Cc1ccc(O)c(C(=O)c2cc(C#N)c(=O)n(CC3CCCO3)c2)c1 (stereo unspecified) | -6.0%
Cc1ccc(S(=O)(=O)c2nc(S(C)(=O)=O)sc2N(C)C)cc1 | -4.4%

The final 7 records of the part before are carried over, then new ones follow.
SMILES | HSD17B inhib
CC(C)c1nnc(NC(=O)Cn2nc(-c3ccc4c(c3)OCCO4)ccc2=O)s1 | 6.7%
O=C(O)CCN1CCc2ccccc21 | -14.5%
COC(=O)C1=C(C)N(c2cccc3ccccc23)C(=O)C1 | -19.2%
COc1ccc(NC(=O)C(C)NS(=O)(=O)c2ccccc2)cc1Cl (stereo unspecified) | 5.8%
O=S(=O)(Nc1ccc2c(c1)nc1n2CCOC1)c1ccc(Cl)cc1 | 6.0%
Cc1ccc(O)c(C(=O)c2cc(C#N)c(=O)n(CC3CCCO3)c2)c1 (stereo unspecified) | -6.0%
Cc1ccc(S(=O)(=O)c2nc(S(C)(=O)=O)sc2N(C)C)cc1 | -4.4%
CN(C)c1nc(SCCOC(=O)c2ccccc2)nc(N(C)C)n1 | -7.2%
S=c1[nH]nc(-c2ccccc2)n1CC1CCCO1 (stereo unspecified) | -24.2%
O=C(c1ccco1)N1CCN(C(=O)c2cc3c(s2)-c2ccccc2OC3)CC1 | 10µM*
CCN(CC)CCCNc1nc2ccccc2[nH]1 | 11.4%
COC(=O)CSc1nnc(CNC(=O)c2ccco2)n1-c1ccc(F)cc1 | -5.4%
O=C(CSc1nnnn1-c1ccc2c(c1)OCCO2)c1cccc2c1OCCO2 | -3.7%
CC(=O)c1c(C)[nH]c(C(=O)OCc2nnc(-c3ccccc3)o2)c1C | -0.5%
CCOC(=O)c1ccc(NC(=O)c2nccnc2C(=O)O)cc1 | -8.2%
NC(=O)Cn1c(=O)n(CCCC(=O)NC2CCN(Cc3ccccc3)CC2)c(=O)c2ccccc21 | -2.4%
COCCOC(=O)c1[nH]c2c(c1C)C(=O)CC(c1ccccc1)C2 (stereo unspecified) | 7.2%
O=C1CCC(=O)N1CNc1ccc(Oc2ccccc2)cc1 | 6.5%
CCOC(=O)Nc1ccc(Oc2ccccc2)cc1 | 1.8%
CCN1C(=O)c2n[nH]c(C(=O)OC)c2C1=O | 31.6µM*
Cc1cc(C(=O)O)ccc1[C@H](N)C(=O)O | -6.1%
CCCCNc1nc2ccccc2nc1NS(=O)(=O)c1cccs1 | ?
CCc1nnc(NC(=O)CSc2nnc(-c3ccc(O)cc3)n2-c2ccccc2)s1 | 2.2%
CCCc1ccc(OCc2nc(-c3ccc(NC(=O)c4ccco4)cc3)no2)cc1 | 10.0%
CCN(CC)C(=O)N1CCN(C(=O)c2ccc(C)cn2)CC1 | 4.7%
CC1Oc2ccccc2N(CC(=O)Nc2ccc3c(c2)OCCO3)C1=O (stereo unspecified) | 8.1%
COc1ccc(OC)c(NC(=O)c2ccc(S(=O)(=O)N3CCN(C)CC3)cc2)c1 | 8.1%
CCOC(=O)c1ccccc1NC(=O)c1ccc(N(C)S(C)(=O)=O)cc1 | 6.5%
CCOC(=O)c1c(CN2CCCCC2C)oc2ccc(OC)cc12 (stereo unspecified) | -19.9%
C=CCn1c(=O)c2c3c(sc2n2c(Nc4ccc(OC)cc4)nnc12)CCCC3 | -12.3%
Cc1ccnc(N2C(=O)OC(C)(C)C2(C)O)c1 (stereo unspecified) | 9.7%
COc1ccc2[nH]cc(CCNc3ncncc3-c3ccc(C(=O)N(C)C)cc3)c2c1 | 6.4%
CCOCC(=O)Nc1ccc(-c2cn3cccnc3n2)cc1 | 3.16µM*
O=C(CCn1c(=O)sc2ccccc21)NCc1ccco1 | 3.6%
CC1(C)S[C@@H]2[C@H](C(=O)O)N=C(Cc3ccccc3)N2[C@H]1C(=O)O | 7.6%[11.4 µM]
OB(O)c1cc2ccccc2o1 | ?
CS(=O)(=O)N(CCc1ccccc1)CC(N)=O | -1.3%

Quoted from the listing.
Reading for `COCCOC(=O)c1[nH]c2c(c1C)C(=O)CC(c1ccccc1)C2` (stereo unspecified) under HSD17B inhib: 7.2%
Reading for `O=C(O)CCN1CCc2ccccc21` under HSD17B inhib: -14.5%
Reading for `Brc1ccccc1OCCCN1CCOCC1` under HSD17B inhib: 10.4%

Back to the main list, starting 2 compounds before the break.
SMILES | HSD17B inhib
OB(O)c1cc2ccccc2o1 | ?
CS(=O)(=O)N(CCc1ccccc1)CC(N)=O | -1.3%
COc1ccc(CN2C(=O)CN=C2Nc2cc(C)ccc2C)cc1 | -5.1%
CC(=O)Nc1ccc(C(=O)OC2CCOC2=O)cc1 (stereo unspecified) | 1.2%
CCCCOC(=O)Cn1c(=O)c2c(nc3n2CCCCN3c2ccc(C)cc2)n(C)c1=O | ?
COc1ccc(N(CC(=O)NCc2cccs2)S(=O)(=O)c2cccnc2)cc1 | 2.6%
CCOC(=O)N1CCN(C(=O)c2ccc(N3C(=O)CCC3=O)cc2)CC1 | 3.0%
CCN(Cc1ccccc1)C(c1cccc(C#N)c1)c1nnnn1C(C)(C)C (stereo unspecified) | -4.0%
Cc1cccc(C#Cc2ccccc2)n1 | 24.1%&6.0%
CCOc1ccc2nc(NC(=O)CSc3nc4c(c(=O)n(C)c(=O)n4C)n3CC)sc2c1 | -2.7%
Cc1nnc(N)nc1C | -0.4%
COc1ccc(-c2csc(N3CCOCC3)n2)cc1OC | 15.4%
CCCCC[C@H](O)c1cccc(OCc2ccc3ccccc3n2)c1 | -9.6%
Cc1ccc(OCCn2ccc(=O)[nH]c2=O)cc1C | 2.4%
Cc1ccc(C(=O)Nc2nc(COc3ccccc3)cs2)s1 | -19.7%
c1c2c(cc3sc(N4CCCCC4)nc13)OCCO2 | ?
COC(=O)CSc1nc2cc(OC)ccc2cc1C#N | 25.1µM*
Cn1c(=O)c(=O)n(C)c2cc(S(=O)(=O)N3CCN(c4cccc(C(F)(F)F)c4)CC3)ccc21 | -8.6%
COCCNC(=O)c1cc(-c2ccc3c(c2)OCO3)on1 | -5.3%
CCCCN(CC)C(=O)c1ccc(Cl)c(Cl)c1 | 1.0%
COc1cc(C2CC(=O)N(CC(=O)NCc3ccco3)c3ccccc3S2)cc(OC)c1OC (stereo unspecified) | -1.3%
CC1CCc2nc(NC(=O)CN3CCN(Cc4ccc5c(c4)OCO5)CC3)sc2C1 (stereo unspecified) | 11.4%
Cc1ccc(-c2c3c(=O)n(C)c(=O)n(C)c3cn2-n2cnnc2)cc1 | -11.1%
O=[N+]([O-])c1cccc2c[nH]nc12 | 31.6µM*
O=S1(=O)CCN2C=Nc3sc4c(c3C2=N1)CCCC4 | -2.5%
C=C1C=C(Br)C2(OCCCO2)[C@H]2OC12 (stereo partly specified) | 3.6%[11.4 µM]
CCN1CCN(CC(O)COc2ccc(C)c(C)c2)CC1 (stereo unspecified) | -2.3%
COc1ccc(OC)c(CCNC(=O)Cn2sc3nc(C)cc(C)c3c2=O)c1 | 6.31µM*
CCCCn1c(SCC(=O)Nc2nc(C)cs2)nnc1-c1cccnc1 | 3.9%
O=C(Nc1nnc(-c2ccccc2)o1)c1ccc(Cl)cc1 | 1.2%
CCCCc1nc2c(c3c1CC(C)OC3)CN(CCC(C)C)CC2 (stereo unspecified) | 3.4%[11.4 µM]
Cc1oc(C)c(C(=O)Nc2ccc(CC(=O)O)cc2)c1C(=O)Nc1ccc(CC(=O)O)cc1 | ?
CC(Sc1nnc(-c2cc3ccccc3o2)n1-c1ccccc1)C(=O)O (stereo unspecified) | -20.9%
CC(C)(C)C(=O)NC(=C(Cl)Cl)P(=O)(O)O | 6.2%
Clc1ccc(-n2ncc3c(NCCN4CCOCC4)ncnc32)cc1 | 20µM*
CCC(C)OC(=O)C1=C(C)NC(=O)NC1c1ccc(F)cc1 (stereo unspecified) | -6.8%
COC(=O)N1CC(=O)N(OC)C1c1ccc(Cl)cc1Cl (stereo unspecified) | -4.8%
CC1OC(OCC2OC(Oc3c(-c4ccc(O)c(O)c4)oc4cc(O)cc(O)c4c3=O)C(O)C(O)C2O)C(O)C(O)C1O (stereo unspecified) | 1.7%
CCN(C1CCCCC1)S(=O)(=O)c1ccc(S(=O)(=O)N2CCN(CCC#N)CC2)cc1 | -8.8%
COC(=O)c1cccc(OCC(O)Cn2ccnc2)c1 (stereo unspecified) | 5.0%
Cn1c(=S)c2[nH]c(SCCN3CCCC3)nc2n(C)c1=O | 4.9%[11.4 µM]
CCCN(CCC)c1nc(NC2CCN(C(=O)OCC)CC2)nc(OC)n1 | -10.9%
CC(=O)c1cccc(S(=O)(=O)NCC(c2ccco2)N2CCCCC2)c1 (stereo unspecified) | 0.5%
CC1CCCC(C)N1C(=O)COC(=O)c1ccc[nH]c1=O (stereo unspecified) | 3.5%
COc1ccc(OC(C)C(=O)NCc2cccnc2)cc1 (stereo unspecified) | 2.5%
COc1ccc(NC(=O)COc2ccccc2)c(OC)c1 | 4.3%
O=c1c2cnn(-c3ccccc3)c2nnn1Cc1ccccn1 | 1.6%
C#CCCCO/N=C1/[C@H]2O[C@@H]2[C@@H](O)[C@H]2[C@H]1CCn1c(=O)n(-c3ccccc3)c(=O)n12 | 7.3%[11.4 µM]
Cn1c2c(c(=O)n(C)c1=O)CN(CCCN1CCOCC1)CN2 | 7.7%
O=C1C(Cl)=C(NCC2CCCO2)C(=O)N1CCc1ccccc1 (stereo unspecified) | 6.2%
COc1ccc2c(c1)N(C[C@@H](C)CN(C)C)c1ccccc1S2 | -0.3%[25.6 µM]
c1cncc(-c2nnc3n2N=C(c2cccs2)CS3)c1 | -9.2%
CCC(=O)N1c2ccc(S(=O)(=O)CCC(=O)NCCC3=CCCCC3)cc2CC1C (stereo unspecified) | -4.6%
CN1C(=O)CC(n2c(CO)nc3ccccc32)C1=O (stereo unspecified) | -6.2%
Cn1cccc1C(=O)N1CCC2(CC1)CCN(c1ccccc1)CC2 | 1.4%
COc1ccccc1CN1CC2(CCN(C(=O)c3ccncc3)CC2)C1 | 2.9%
NC(=O)CSc1nc2ccccc2n1-c1ccccc1 | -8.1%
C=CCC(C#Cc1ccccc1)N(C)C (stereo unspecified) | 4.8%
O=C(CSc1n[nH]c(-c2ccncc2)n1)c1ccccc1 | -8.6%
COc1ccc(NC(=O)CN(C)S(=O)(=O)c2cccc3cccnc23)cc1 | -0.8%
Cc1ccsc1C(=O)OCC(=O)c1cc2ccccc2o1 | -4.9%
NC(=O)c1oc2ccccc2c1NC(=O)c1nc2ccccc2s1 | 25.1µM*
(more compounds)
SMILES | HSD17B inhib
Cc1ccc(OCCn2c(CCCO)nc3ccccc32)cc1 | -7.9%
CCN1CCCC1CNC(=O)c1cc2c(-c3ccc(Cl)cc3)nn(C)c2s1 (stereo unspecified) | 25.1µM*
Fc1cccc(Cl)c1Cn1nnc(-c2ccc3c(c2)OCO3)n1 | -13.2%
COc1ccc(C2/C(=C(/O)c3ccccc3)C(=O)C(=O)N2CCN2CCOCC2)c(OC)c1 (stereo unspecified) | -1.0%
COc1cc(Cl)c(C)cc1NC(=O)CSc1nc2ccccc2o1 | -5.8%
CCn1c(CN2CCN(C(=O)c3ccco3)CC2)nc2c1c(=O)n(C)c(=O)n2C | 2.9%
Cc1nn(Cc2ccc(Cl)cc2)c(C)c1NC(=O)c1cc(-c2ccc3c(c2)OCO3)on1 | -4.5%
CCOCC(O)CSCc1ccc(Cl)cc1 (stereo unspecified) | 2.3%
CCN1CCN(Cc2ccc(OCc3ccccc3)cc2)CC1 | -3.5%
Cc1[nH]c2ccccc2c1C1=CN2CCS(=O)(=O)N=C2S1 | 5.1%
O=C(NCc1ccccn1)c1ccc2nc(-c3ccco3)c(-c3ccco3)nc2c1 | 12.6µM*
O=C(c1ccc2nc(N3CCOCC3)sc2c1)N1CCN(C(=O)c2ccco2)CC1 | -5.0%
CC1(C)CC(C#N)(N2CCOCC2)CCO1 (stereo unspecified) | 10.7%
CCOC(=O)N1CCN(C(=O)c2cc(-c3ccc(F)cc3)[nH]c2C)CC1 | -2.4%
O=C(O)C/C=C\CC(=O)O | 5.3%[11.4 µM]
CS(=O)(=O)N1CCC(C(=O)Nc2ccccc2F)CC1 | 9.8%
Cc1cccc(CN(C)CCc2ccccn2)c1 | 19.1%
O=C1c2ccccc2C2(c3ccccc3)NCCN12 (stereo unspecified) | 10.6%
c1cncc(Nc2nc(-c3ccncc3)cs2)c1 | -8.7%
O=C(CN1C(=O)c2ccccc2S1(=O)=O)N1CCOCC1 | 7.7%
O=c1c2c3c(sc2nc2n1CCCCC2)CCCC3 | ?
Cc1cc(C)n(C(=O)CNC(=O)Cc2ccccc2)n1 | -9.6%
CCCCCCOC(=O)C(C#N)c1nc2ccccc2nc1N1CCN(CC)CC1 (stereo unspecified) | 0.2%
c1ccc([C@H](c2cccc3c2ccc2ccccc23)[C@H](c2ccccc2)c2cccc3c2ccc2ccccc23)cc1 | -1.3%[11.4 µM]
Cc1noc(C)c1C(=O)Nc1ccccn1 | 0.6%
